Bioassay records (PubChem BioAssay)
VDR inh: vitamin D3 receptor (human) inhibition; Potency, µM, for inactives: max response, negative = inhibition, usual class: inhibitors; VDR-SRC2-3 peptide fluorescence polarization, 2 h; P11473; actives 0.93% (n = 400,000); active means well fitted inhibition curve with a large enough effect; inconclusive means small, poorly fitted or top-dose-only effect, or another doubt; inactive means no such curve, though single readings can be large or run the other way; further: series mostly up to about 120 µM
Target sequence (P11473 whole entry, looked up): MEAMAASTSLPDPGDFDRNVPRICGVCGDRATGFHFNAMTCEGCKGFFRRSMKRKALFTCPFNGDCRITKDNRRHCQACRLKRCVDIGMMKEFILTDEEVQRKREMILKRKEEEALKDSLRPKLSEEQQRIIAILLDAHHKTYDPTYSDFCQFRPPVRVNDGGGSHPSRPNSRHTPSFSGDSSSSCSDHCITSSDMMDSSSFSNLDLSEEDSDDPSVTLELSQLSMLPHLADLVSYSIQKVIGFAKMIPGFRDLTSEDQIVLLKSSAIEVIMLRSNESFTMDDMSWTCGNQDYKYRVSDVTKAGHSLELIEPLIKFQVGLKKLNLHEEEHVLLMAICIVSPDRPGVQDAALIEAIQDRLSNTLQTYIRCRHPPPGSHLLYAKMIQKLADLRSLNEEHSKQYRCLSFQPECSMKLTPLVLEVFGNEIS
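After 23 nl compound addition and a short centrifugation, plates sat for 2 hours at ambient temperature; polarization of fluorescence then indicated loss of VDR binding to peptide SRC2-3.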
An asterisk follows results filed as active; ? = inconclusive; & = joins results of further samples; [ ] = dose if it differs, or a comment. On the % scale 0 is the no-effect control and ±100 the full control effect; potency means the concentration at half of the fitted maximal effect.

SMILES	VDR inh
COC(=O)c1sccc1N(C)S(C)(=O)=O	16%
Cc1ccc(S(=O)(=O)N2CCC(C(=O)N/N=C/c3ccccc3[N+](=O)[O-])CC2)cc1	-9%
Cc1cc(OCC(=O)c2ccc(Br)cc2)ccc1N1C(=O)CCC1=O	-5%
Cc1cc(Br)cnc1NC(=S)Nc1ccc(F)cc1F	-13%
CC(C)c1ccc(NC(=O)Cc2ccc(NC3=NC4CS(=O)(=O)CC4S3)cc2)cc1 (stereo unspecified)	5%
CCCCNC(=O)c1cccc(NC(=O)C(=O)c2ccccc2NC(C)=O)c1	-7%
COc1cc(S(=O)(=O)NC2CCCCC2)ccc1F	3%
CN=C(Nc1cccc(S(=O)(=O)N2CCOCC2)c1)c1ccccc1	23%
COC(=O)N1CCC2(CCN(C(=O)Nc3ccccc3)CC2)CC1	0%
COc1ccccc1NS(=O)(=O)c1ccc(NC(=O)c2nc3ncccn3n2)cc1	17%
Cc1ccc(NCc2nnc(SCC(=O)Nc3ncc(C)s3)n2CC2CCCO2)c(C)c1 (stereo unspecified)	8%
CN(C)CCCNc1cc(-c2ccccc2)nc2cc(-c3cccc(F)c3)nn12	-16%
CCCCN(C(=O)c1cc2c(s1)CCCCC2)c1c(N)n(CCC)c(=O)[nH]c1=O	7%
Cc1c(C(=O)Nc2cccc(F)c2)cnn1-c1ccccc1	?
COc1ccc(NC(=O)c2nnn(Cc3ccc(Br)cc3F)c2N)c(OC)c1	-9%
COCCN(Cc1ccccc1)C(=O)Cc1ccc(S(=O)(=O)N2CCOCC2)s1	11%
COc1ccc(NC(=S)NN2CCOCC2)cc1OC	9%
Cc1nc2nc(NCc3ccccc3Cl)[nH]n2c(=O)c1Cc1ccccc1	4%
Nc1cccc(C(=O)O)c1	-16%
Cc1cc(C(=O)N(C)CC(=O)Nc2ccc(Cl)c(C(F)(F)F)c2)no1	-3%
COc1cc(/C=C/C(=O)OCC(=O)N2CCc3ccccc3C2)ccc1O	-15%
O=C(COC(=O)C1CCCCC1)Nc1cccc(F)c1	0%
Cn1c(=O)c(=O)n(C)c2cc(S(=O)(=O)CCC(=O)N3CCOCC3)ccc21	?
CCN(CC)CCN1C(=O)/C(=C\c2ccc(Cl)c([N+](=O)[O-])c2)SC1=Nc1ccc(OC)cc1	?
CCOc1ccc(C(=O)Nc2onc3c2CCCC3)cc1	4%

The listing continues:
SMILES	VDR inh
COc1cc(OC)c(OC)cc1/C=N/NC(=S)NCCN1CCOCC1	-4%
COCCNC(=O)c1ccc2c(=O)n(Cc3ccco3)c(SCC(=O)Nc3ccc(OC)cc3OC)nc2c1	-16%
N#CCCN(Cc1cccnc1)S(=O)(=O)c1ccc(S(=O)(=O)N2CCCCCC2)cc1	3%
O=C(CC(NCCN1CCOCC1)C(=O)O)Nc1cccc(Cl)c1 (stereo unspecified)	7%
COc1cccc(-c2nnc(NC(=O)C(C)C)o2)c1	8%
O=C(Nc1ccc2c(c1)OCO2)C1CCCN1C(=O)NCc1ccccc1 (stereo unspecified)	2%
CCCCn1c(N)c(N(Cc2ccccc2OC)C(=O)c2c(CC)noc2C)c(=O)[nH]c1=O	14%
O=C(CCCCn1c(=O)c2ccccc2n(Cc2cccc(F)c2)c1=O)NCCc1ccccc1	-2%
COc1ccc(CCn2c3c(c(=O)[nH]c2=O)C(NC(=O)c2cccs2)(C(F)(F)F)C(=O)N3)cc1OC (stereo unspecified)	-6%
O=C(N/N=C/c1ccc2cccnc2c1)c1nc2ccccc2c(=O)[nH]1	28%
COc1cccc(NC(=O)CSc2nnc(-c3ccoc3C)n2CC2CCCO2)c1 (stereo unspecified)	-2%
O=C1CC(NCc2ccccc2F)C(=O)N1c1ccccc1 (stereo unspecified)	2%
CC(Oc1ccccc1)C(=O)Nc1ccccc1O (stereo unspecified)	-10%
OC1CCCN(C(=S)Nc2ccc(SC(F)F)cc2)C1 (stereo unspecified)	3%
Cc1c(Cl)c(-c2n[nH]c(=S)n2Cc2ccco2)nn1C	-9%
CSc1scc2c1-c1nc(SCC(=O)C(C)(C)C)ncc1CC2	0%
C=CCn1c(=O)[nH]c(=O)c2c(N)c(C(=O)c3ccc(OC)cc3)sc21	-7%
CCC(C)Nc1nc(-c2ccccn2)nc2ccccc12 (stereo unspecified)	6%
COc1ccc(OCCn2c(C(C)Oc3ccccc3)nc3ccccc32)cc1 (stereo unspecified)	14%
CC(C)N(CCNC(=O)COc1ccc2oc3c(c2c1)CCCC3)C(C)C	-7%
CC(=O)c1ccc(NS(=O)(=O)c2c(C)nc3scc(C)n3c2=O)cc1	1%
COc1ccccc1C(=O)N/N=C(\C)CC(=O)Nc1ccc2c(c1)OCCO2	-1%
CCOC(=O)c1sc2nccc(N(C)C)c2c1N=CNOC	?
Cc1ccc(S(=O)(=O)Nc2nc3n(n2)C(c2ccc(Cl)cc2)C=C(c2ccccc2)N3)cc1 (stereo unspecified)	8%
COCCCN1C(=O)c2ccc(C(=O)Nc3ccccc3OC)cc2C1=O	-4%

Further structures.
SMILES	VDR inh
Cc1ccc(NC(=O)CCCc2ccccc2)nc1	10%
Clc1c(-c2ccccc2)nc2ccccn12	12%
CCN(CC(=O)NCc1ccc(F)cc1)C(=O)c1ccc(C)o1	-9%
CN1C(=O)/C(=C/c2cc(N=Nc3ccccc3)ccc2O)SC1=S	52%[activator]
CCNc1nc(NCC)n2c(SCC(=O)Nc3cccc(F)c3)nnc2n1	-2%
COC(=O)[C@H](CCSC)NC(=O)Nc1cccc(Br)c1	10%
C/C(=N\NC(=O)c1ccoc1C)c1cccc2ccccc12	25%
O=C(NCC(=O)N1CCN(C(=O)c2ccccc2)CC1)c1ccc(Cl)cc1Cl	-9%
O=c1cc(/C=C/c2ccccc2)oc2c1ccc1ccccc12	?
O=C(Cc1cccc2ccccc12)NCCc1ccccc1	-2%
O=C(NCC1CCCO1)c1ccc2[nH]c3c(c2c1)CCCC3 (stereo unspecified)	-4%
C=C1CCC(C)C(C)(CCC2=CCOC2=O)C/C=C\C=C/1C(=O)O (stereo unspecified)	-5%
CC1(C)C(=O)NCCN1C(=O)CC1C(=O)NCCN1CC(c1ccccc1)c1ccccc1 (stereo unspecified)	4%
O=C(NCCc1ccc(Cl)cc1)c1ccc2nc(Cc3ccccc3)oc2c1	1%
CCCN(CC1CCCO1)C(=O)c1cc(COc2cccc(OC)c2)on1 (stereo unspecified)	0%
CN(C)/C=C/C(=O)c1ccc(-n2cccc2)cc1	-7%
NC(=O)C1CCCN(C(=O)Nc2cccc3ccccc23)C1 (stereo unspecified)	3%
CCOC(=O)N1CCN(C(=O)CSCc2ccc(C)cc2)CC1	21%
CSc1nc(-c2ccccc2)nn1S(=O)(=O)c1ccccc1	14%
Cc1ccc(C)c(NC(=O)CN2C(=O)CCc3ccccc32)c1	9%
COc1ccc(NS(=O)(=O)c2ccc3c(c2)CC(C)N3C(C)=O)c(OC)c1 (stereo unspecified)	8%
O=C(CCSc1nc2cc(Cl)ccc2o1)N1CCOCC1	6%
Cc1ccc2c(c1)C(=NC1CCCCC1)c1cc3ccccc3nc1-2	-3%
Nc1nc(-c2ccc(Cl)cc2)c(N=Nc2ccc(S(=O)(=O)N3CCOCC3)cc2)s1	9%
Cc1nc(C)c(C(=O)NNS(=O)(=O)c2ccc3ccccc3c2)s1	-5%

(next part)
SMILES	VDR inh
COc1ccc(NC(=O)CCCSc2nc(-c3ccco3)cc(C(F)(F)F)n2)cc1	-13%
O=c1[nH]c(C2CCN(S(=O)(=O)Cc3ccccc3)CC2)nc2c1nnn2Cc1ccccc1Cl	-12%
COc1cc(C(=O)OCCNC(=O)c2cccnc2)cc(OC)c1OC	9%
COc1cc(S(=O)(=O)N2CCN=C2c2ccccc2)ccc1F	15%
CC1CCCC(C)N1C(=O)c1ccccc1Nc1ccc(SC(F)F)cc1 (stereo unspecified)	10%
COc1ccc(NS(=O)(=O)c2ccc(C(=O)N3CCCCCC3)cc2)cc1	-1%
CCC(C)N=CC1=C(O)CC(c2ccccc2)CC1=O (stereo unspecified)	4%
C/C(=N/NS(=O)(=O)c1cc(C)ccc1C)c1ccncc1	?
CCN(CC(=O)Nc1c(F)cccc1F)C(=O)c1ccc(C)c(S(=O)(=O)N2CCCCC2)c1	22%
S=C1NCCN1CC1CCN(CCC23CC4CC(CC(C4)C2)C3)CC1	13%
CC(C)c1ccc(S(=O)(=O)NC2CCCC2)cc1	-9%
O=C(CS(=O)(=O)c1ccccc1)Nc1ccc(S(=O)(=O)Nc2ncccn2)cc1	-7%
CC(NC(=O)Cc1cccs1)c1ccncc1 (stereo unspecified)	-10%
O=C(Cn1c(=O)n(Cc2ccco2)c(=O)c2c3c(sc21)CCCC3)Nc1ccccc1	-10%
COc1ccccc1CNC(=O)C1CCN(c2nnc(C)c3c(C)n(-c4ccccc4)nc23)CC1	6%
COc1ccc(N=C2SC(C(=O)N3CCN(c4ccc([N+](=O)[O-])cc4)CC3)CC(=O)N2C)cc1 (stereo unspecified)	5%
COc1cc(C)c(NC(c2ccccc2)c2ccccc2)cc1OC	0%
COc1ccc(N(C(=O)c2ccco2)C(C(=O)NC2CCCC2)c2ccncc2)cc1OC (stereo unspecified)	1%
O=C(/C=C/c1ccc([N+](=O)[O-])cc1)N1CCN(c2ccccc2F)CC1	-25%
CC(C)Cn1c(=O)c2sccc2n2c(CCCC(=O)NCCc3ccc(Cl)cc3)nnc12	2%
CCCCNc1nc2c(S(=O)(=O)c3ccc(Cl)cc3)nnn2c2ccsc12	-3%
N#C/C(=C\c1ccc(N2CCOCC2)cc1)c1ccccc1	12%
COc1ccc(CN(C(C)=O)c2cccc(C)c2C)cc1	15%
COCCCNC(=S)NCCc1ccc(F)cc1	21%
CCn1cc(Br)c(C(=O)Nc2ccccc2C(=O)OC)n1	-7%

Reprinted from above for reference:
SMILES	VDR inh
COC(=O)c1sccc1N(C)S(C)(=O)=O	16%
Cc1ccc(S(=O)(=O)N2CCC(C(=O)N/N=C/c3ccccc3[N+](=O)[O-])CC2)cc1	-9%
Cc1cc(OCC(=O)c2ccc(Br)cc2)ccc1N1C(=O)CCC1=O	-5%

Three compounds already listed, ordered by SMILES length, rising.
SMILES	VDR inh
CC(C)c1ccc(S(=O)(=O)NC2CCCC2)cc1	-9%
N#C/C(=C\c1ccc(N2CCOCC2)cc1)c1ccccc1	12%
O=C(CS(=O)(=O)c1ccccc1)Nc1ccc(S(=O)(=O)Nc2ncccn2)cc1	-7%

The listing picks up, repeating the 7 entries before the break.
SMILES	VDR inh
O=C(/C=C/c1ccc([N+](=O)[O-])cc1)N1CCN(c2ccccc2F)CC1	-25%
CC(C)Cn1c(=O)c2sccc2n2c(CCCC(=O)NCCc3ccc(Cl)cc3)nnc12	2%
CCCCNc1nc2c(S(=O)(=O)c3ccc(Cl)cc3)nnn2c2ccsc12	-3%
N#C/C(=C\c1ccc(N2CCOCC2)cc1)c1ccccc1	12%
COc1ccc(CN(C(C)=O)c2cccc(C)c2C)cc1	15%
COCCCNC(=S)NCCc1ccc(F)cc1	21%
CCn1cc(Br)c(C(=O)Nc2ccccc2C(=O)OC)n1	-7%
CC(=O)NC(C)Cc1cn(Cc2ccccc2)c2ccccc12 (stereo unspecified)	3%
O=C(COC(=O)c1ccc([N+](=O)[O-])o1)Nc1ccc2c(c1)OCO2	-4%
O=C(CSc1nc2ccccc2o1)N1c2ccccc2Sc2ccc(Cl)cc21	5%
O=C1c2ccccc2C(=O)N1/N=C/c1ccc(O)c(O)c1O	79µM*
CCOC(=O)Nc1nc(-c2ccccc2)c(C(=O)c2ccccc2)s1	7%
CN(C(=O)N1CCN(S(=O)(=O)c2ccccc2)CC1)c1ccccc1	15%
C=CCn1c(Oc2ccc(C=O)cc2OCC)nc2c1c(=O)n(C)c(=O)n2C	-9%
Cc1ccc(C2C=C(c3ccc(Cl)cc3)Nc3nc(NC(=O)c4ccco4)nn32)cc1 (stereo unspecified)	-28%
Cc1cccc(C)c1OCC(=O)Nc1ccncc1	-8%
Cc1cc(C(=O)N/N=C\c2cc(C(C)(C)C)c(O)c(C(C)(C)C)c2)n[nH]1	-7%
Oc1c(Cl)cc(Cl)cc1CNc1nc2ccccc2[nH]1	-3%
O=C(O)C1C2C=CC(C2)C1C(=O)N1CCN(CCO)CC1 (stereo unspecified)	-13%
CN(C(=O)c1cccc(NC(=O)Cc2cccc(NC(=O)C3CCN(C(=O)c4ccccc4)CC3)c2)c1)C1CCCC1	-6%
Cc1nc2[nH]c(=S)[nH]c2cc1Br	-4%
Cc1ccc2c(c1)NC(=O)C(CC(=O)NCCCN1CCCCC1)O2 (stereo unspecified)	-2%
CN(C)c1ccc(-c2nnn(Cc3ccccc3Br)n2)cc1	-7%
Cc1csc(SCC(=O)NC2CCS(=O)(=O)C2)n1 (stereo unspecified)	0%
CCN(CC)C(=O)c1nc[nH]c1C(=O)N(CC)CC	-1%
CC1CCN(c2oc(-c3cccc4ccccc34)nc2C#N)CC1	-4%
O=C(Nn1c(O)c(C=C2N=c3ccccc3=N2)sc1=S)c1ccccc1	1%
O=C1NC2(CCCCC2)OC12CCCCC2	-11%
NC(=O)CC(NC(=O)Cc1cccc2ccccc12)c1ccc(N2CCN(c3ccccn3)CC2)c([N+](=O)[O-])c1 (stereo unspecified)	-3%
Cc1cccc(N2CCN(C(=O)c3cccc(N4C(=O)C5CC=CC(C)C5C4=O)c3)CC2)c1C (stereo unspecified)	10%
CC(C)C(=O)Nc1c(-c2ccccc2F)c(=O)c2ccccc2n1C	-17%
COc1ccc(-c2c(C)cc3oc(=O)cc(-c4ccccc4)c3c2C)cc1C=O	-17%&-29%
Cc1ccc(CC2(OCCN(C)C)CCC(C(C)(C)C)CC2)cc1 (stereo unspecified)	-7%
COC(=O)COc1cccc(NC(=O)COc2ccccc2)c1	21%
Cc1nn(C)cc1/C=C/C(=O)c1ccccc1	2%
COc1ccccc1C(=O)OCCc1ccccc1	8%
Cc1nc2c([nH]c3ccc(Br)cc32)s1	9%

A portion of the library; rates above refer to the full screens.
